# EPAC1 ag val: validation of human EPAC1 agonists; EPAC1 Rap1b BODIPY-GDP exchange, fluorescence; Potency, µM, for the others: max response, positive = active, hits mostly activators; hit rate 1% among 16,000; AID 1645883; active means well fitted activation curve with a large enough effect; inconclusive means small, poorly fitted or top-dose-only effect; inactive means no such curve, though single readings can be large or run the other way;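 further: nearly all actives have a fitted effect of over 70% in size; series mostly up to about 76 or 150 µM; scaled to a cAMP control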
# Target sequence (O95398 whole entry, looked up): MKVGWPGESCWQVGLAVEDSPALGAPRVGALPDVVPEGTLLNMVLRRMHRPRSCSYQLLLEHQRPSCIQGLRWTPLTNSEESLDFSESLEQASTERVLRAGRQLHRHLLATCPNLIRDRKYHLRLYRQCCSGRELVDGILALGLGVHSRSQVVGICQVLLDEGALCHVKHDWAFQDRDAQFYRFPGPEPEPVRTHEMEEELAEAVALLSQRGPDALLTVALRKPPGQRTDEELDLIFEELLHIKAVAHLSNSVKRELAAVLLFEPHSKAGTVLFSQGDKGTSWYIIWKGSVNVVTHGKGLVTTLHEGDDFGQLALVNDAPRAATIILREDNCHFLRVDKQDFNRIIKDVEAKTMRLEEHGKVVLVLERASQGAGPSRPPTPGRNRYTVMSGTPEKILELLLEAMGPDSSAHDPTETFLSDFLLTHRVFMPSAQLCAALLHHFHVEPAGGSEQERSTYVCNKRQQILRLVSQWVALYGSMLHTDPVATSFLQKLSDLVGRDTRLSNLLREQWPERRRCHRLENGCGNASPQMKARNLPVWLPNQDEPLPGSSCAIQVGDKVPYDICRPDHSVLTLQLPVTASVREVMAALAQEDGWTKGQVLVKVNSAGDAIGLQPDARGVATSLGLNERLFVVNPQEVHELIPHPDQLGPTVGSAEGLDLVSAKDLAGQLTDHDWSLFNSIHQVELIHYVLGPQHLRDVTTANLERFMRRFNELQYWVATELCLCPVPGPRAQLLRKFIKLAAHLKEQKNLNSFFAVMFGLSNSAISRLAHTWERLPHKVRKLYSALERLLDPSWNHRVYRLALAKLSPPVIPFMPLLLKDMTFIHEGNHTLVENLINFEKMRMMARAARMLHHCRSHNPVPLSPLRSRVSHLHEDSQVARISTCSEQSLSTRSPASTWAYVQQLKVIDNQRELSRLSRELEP
# Numbers without * were called inactive; ? = inconclusive; & = joins results of further samples; ! = a repeat was not active; [ ] = remark or other dose. On the % scale 0 is the no-effect control and ±100 the full control effect; potency means the concentration at half of the fitted maximal effect. A portion of the library (hit frequency here may not be typical).
no.	SMILES	EPAC1 ag val
1	C[C@H](O)[C@H](O)[C@H]1CNc2nc(N)[nH]c(=O)c2N1	-8%
2	CC1(C)CC(=O)C([C@H]2C3=C(CC(C)(C)CC3=O)Oc3ccccc32)C(=O)C1	-1%
3	CCCCCCCCCC(=O)O[C@H](CC(=O)O)C[N+](C)(C)C	-9%
4	CCCCC/C=C\C/C=C\C/C=C\C/C=C\CCCC(=O)O[C@H](COCCCCCCCCCCCCCCCC)COP(=O)([O-])OCC[N+](C)(C)C	-40%[inhibitor]
5	COC(=O)/C(=C1/OC(=O)C(c2ccccc2)=C1O)c1ccccc1	?
6	Cc1ccccc1-c1ccc2ncnc(N3CCNCC3)c2c1	1%
7	Cc1cnc(-n2ncc(C(=O)NCc3ccncc3)c2-c2cccs2)nc1-c1ccc(F)cc1	18%
8	C[N+](C)(C)CCOC(=O)CCC(=O)OCC[N+](C)(C)C	6%&-27%
9	COc1cccc(C(=O)O[C@H]2[C@H](C)NS(=O)(=O)[C@H]3C[C@@H]4C=C[C@]23O4)c1	?
10	CCOC(=O)Cc1ccc(-c2ccccc2)cc1	0%
11	CC(C)=CCc1c(O)cc2occ(-c3ccc4c(c3)OCO4)c(=O)c2c1O	?
12	CNc1ncncc1-c1ccc(C(=O)N(C)C)cc1	-5%
13	CC(C)c1ccc2c(c1)CC[C@@H]1[C@@](C)(CN)CCC[C@]21C	-19%
14	Cc1nc2cnc(N3CCNCC3)nc2n(Cc2cccs2)c1=O	1%
15	COc1ccc(-n2c(=O)c(C)nc3cnc(OC)nc32)cc1	-32%[inhibitor]
16	CC(=O)OCC(=O)[C@@]1(O)[C@H](OC(C)=O)C[C@H]2[C@@H]3CCC4=CC(=O)C=C[C@]4(C)[C@@]3(F)[C@@H](O)C[C@@]21C	-1%
17	Fc1ccc(/C=C/c2ccc3ccccc3n2)cc1	14%
18	COc1cccc(OC)c1CN1CCC2(CCC(CNC(=O)c3ccn(C)n3)O2)CC1 (stereo unspecified)	0%
19	COC(=O)c1c(OCC2CCCN(C)C2)cc(=O)n2c1CCN(Cc1ccc(OC)c(O)c1)CC2 (stereo unspecified)	-22%
20	COc1cc(O)c(C(=O)O)c(O)c1	7%
21	O=C(c1cnccn1)N1CCC2(CC1)CN(c1ncccn1)C2	-49%[inhibitor]
22	CCCS(=O)(=O)NCc1c(C)ncc2c1CCN(C(=O)c1cccc(Cl)c1F)C2	5%
23	Cc1c(C(=O)NCCN2CCOCC2)cnn1-c1nccc(-c2cc3ccccc3o2)n1	-8%
24	O=c1cnc2cnc(Oc3cccc(Cl)c3)nc2n1Cc1ccc(F)cc1	8%
25	COc1ccccc1CCc1nc2ccccc2n1C1CCN(C(=O)c2cn3ccsc3n2)CC1	0%
26	N[C@H](C(=O)O)[C@H](Cc1ccccc1)C(=O)O	-8%
27	CC(=O)OC/C=C(\C)CC/C=C(\C)CC/C=C(\C)CC/C=C(\C)CC/C=C(\C)CC/C=C(\C)CC/C=C(\C)CC/C=C(\C)CCC=C(C)C	?
28	Cc1cc(=O)c(C(=O)N(C)CCc2ccccn2)c2n1-c1ccccc1SC(c1ccsc1)C2 (stereo unspecified)	7%
29	N#Cc1ccc(CN2CCCC3(CCN(C(=O)c4csnn4)CC3)C2)cc1	-3%
30	CCN1CCN(C(=O)N[C@@H](C(=O)N[C@@H]2C(=O)N3[C@@H]2SC(C)(C)[C@H]3C(=O)O)c2ccccc2)C(=O)C1=O	16%

# 6 records drawn at random from those above:
no.	SMILES	EPAC1 ag val
21	O=C(c1cnccn1)N1CCC2(CC1)CN(c1ncccn1)C2	-49%[inhibitor]
8	C[N+](C)(C)CCOC(=O)CCC(=O)OCC[N+](C)(C)C	6%&-27%
20	COc1cc(O)c(C(=O)O)c(O)c1	7%
18	COc1cccc(OC)c1CN1CCC2(CCC(CNC(=O)c3ccn(C)n3)O2)CC1 (stereo unspecified)	0%
23	Cc1c(C(=O)NCCN2CCOCC2)cnn1-c1nccc(-c2cc3ccccc3o2)n1	-8%
7	Cc1cnc(-n2ncc(C(=O)NCc3ccncc3)c2-c2cccs2)nc1-c1ccc(F)cc1	18%

# Carrying on:
no.	SMILES	EPAC1 ag val
31	CCOC(C)OCC	-19%
32	CCCC[C@@]1(C2CCCC2)Cc2cc(OCC(=O)O)c(Cl)c(Cl)c2C1=O	-6%
33	OC1(c2cccnc2)CCN(Cc2ccc3c(c2)CN(Cc2cc4ccccc4s2)CCO3)CC1	?
34	COc1ccc(Oc2ncc3nc(-c4cccs4)c(=O)n(CCC#N)c3n2)cc1	-28%
35	CC(=O)OCC(=O)[C@@]1(O)CC[C@H]2[C@@H]3CCC4=CC(=O)CC[C@]4(C)C3=CC[C@@]21C	-11%
36	CC(N)=NCCC[C@H](N)C(=O)O	4%
37	CC(C)C[C@@H](N)C(=O)O	-41%[inhibitor]
38	C=C1CC[C@H](O)CC1=C/C=C1\CCC[C@]2(C)[C@@H]([C@H](C)CCCC(C)(C)O)CC[C@@H]12	-21%
39	O=c1[nH]c(=O)c2ccccc2o1	-25%
40	CCCCC1=NC2(CCCC2)C(=O)N1Cc1ccc(-c2ccccc2-c2nn[nH]n2)cc1	-24%
41	NC1=NC2C(N=C(Br)N2[C@@H]2O[C@H]3COP(=O)(O)O[C@@H]3[C@@H]2O)C(=O)N1 (stereo partly specified)	17%
42	COc1cc2ccc(=O)oc2cc1O	100µM*!
43	O=C(C1CCCCC1)N1CCOc2ccc(CN3CCN(Cc4ccccn4)CC3)cc2C1	-4%
44	CN1CCN(c2ncnc3ccc(-c4cccc(NS(C)(=O)=O)c4)cc23)CC1	-14%
45	CCC1C(=O)NCCN1Cc1ccc2c(c1)CN(Cc1ccc(OC)cc1OC)CCO2 (stereo unspecified)	9%
46	Cc1noc(C)c1C(=O)N1CCC2(CC1)CN(c1ccccc1)C2	-17%
47	OCC(O)COc1cccc2ccccc12 (stereo unspecified)	-9%
48	Cc1ccnc2ccc3ccccc3c12	?
49	O=C1NCCN1c1ncc([N+](=O)[O-])s1	9%
50	CC(C)c1c(C(=O)NCC2(N3CCOCC3)CCCC2)cnn1-c1nccc(-c2cccs2)n1	6%
51	COc1ccc(-c2coc3cc(O)ccc3c2=O)cc1	-15%&22%
52	CS(=O)(=O)N1CCC[C@@]2(CCN(C(=O)Nc3cccc(C#N)c3)C2)C1	-52%[inhibitor]
53	NCCCC[C@H](NC(=O)[C@@H]1CCCN1C(=O)[C@@H]1CSSC[C@H](NC(=O)CNC(=O)CNC(=O)CN)C(=O)N[C@@H](Cc2ccc(O)cc2)C(=O)N[C@@H](Cc2ccccc2)C(=O)N[C@@H](CCC(N)=O)C(=O)N[C@@H](CC(N)=O)C(=O)N1)C(=O)NCC(N)=O	3%
54	COC(=O)CC1C(C)(C)C(OC(C)=O)[C@@]2(O)C=C3C4CC(=O)OC(c5ccoc5)[C@]4(C)CCC3[C@@]1(C)C2=O (stereo partly specified)	4%
55	COCCn1c(=O)c(-c2cccs2)nc2cnc(N3CCNCC3)nc21	25%
56	Cc1ccc(C(=O)N(Cc2cc3ccc(F)cc3nc2N2CCC(O)CC2)CC2CCCO2)cc1 (stereo unspecified)	-5%
57	CCCNC(=O)[C@H]1O[C@@H]1C(=O)N[C@H](C(=O)N1CCC[C@H]1C(=O)OC)[C@@H](C)CC	-10%
58	NC(=O)C(=O)N/N=C/c1ccc([N+](=O)[O-])o1	-37%
59	C=C1CC[C@@H]2[C@](C)(CO)[C@H](O)CC[C@@]2(C)[C@@H]1C/C=C1/C(=O)OC[C@H]1O	-54%[inhibitor]
60	O=C(c1ccncc1)N1CCC2(CC1)CN(c1ccc(-c3ccccc3)cc1)C2	-5%

# The results go on.
no.	SMILES	EPAC1 ag val
61	O=C(O)CP(=O)(O)O	3%&20%
62	CN(CCO)C(=O)c1cn(C2CCN(Cc3c(F)cccc3Cl)CC2)nn1	6%
63	O=C(c1ccncc1)N1CCC[C@@]2(CCN(Cc3ccncc3)C2)C1	-58%[inhibitor]
64	CCCCC[C@H](O)/C=C/[C@H]1[C@H](O)CC(=O)[C@@H]1CCCCCCC(=O)O	-15%&-42%
65	Cc1noc(C)c1-c1cc(Nc2ccc(F)cc2)ncn1	-97%[inhibitor]
66	Cn1c2c(c(=O)c3ccccc31)C[C@@H](O)C(C)(C)O2	5%
67	Cc1ccc(-c2ncc(Cl)cc2-c2ccc(S(C)(=O)=O)cc2)cn1	-26%
68	CN1CCCCCC1C(=O)NCCN1Cc2ccccc2OC(c2ccsc2)C1 (stereo unspecified)	-2%
69	CCOC(=O)OC(C)OC(=O)C1N2C(=O)C(NC(=O)C(N)c3ccccc3)C2SC1(C)C (stereo unspecified)	?
70	CN1CCN(C(c2ccccc2)c2ccc(Cl)cc2)CC1 (stereo unspecified)	-3%
71	CO[C@H]1C[C@H](O[C@H]2[C@H](C)[C@@H](O[C@@H]3O[C@H](C)C[C@H](N(C)C)[C@H]3O)[C@@H](C)C[C@]3(CO3)C(=O)[C@H](C)[C@@H](O)[C@@H](C)[C@@H](C)OC(=O)[C@@H]2C)O[C@@H](C)[C@@H]1O	-4%
72	CN=C(N)NCCC[C@H](N)C(=O)O	?
73	CC(=O)N1CCC2(CC1)CN(C(c1ccccc1)c1ccccc1)C2	?
74	CCCCCCOC(=O)c1cccnc1	-26%
75	CC(C)c1c(C(=O)NCC(C)(C)N2CCOCC2)cnn1-c1nccc(-c2cccs2)n1	5%
76	CC1=C(C(=O)O)N2C(=O)[C@@H](NC(=O)[C@H](N)C3=CCC=CC3)[C@H]2SC1	6%
77	COc1ccc(/C=C/C(=O)c2ccc(OC)cc2OC)cc1	14%
78	COCC1=C(C(=O)OC(C)OC(=O)OC(C)C)N2C(=O)[C@@H](NC(=O)/C(=N\OC)c3csc(N)n3)[C@H]2SC1 (stereo partly specified)	19%&-20%
79	O=C(c1ccncc1)N1CCC[C@@]2(CCN(c3ccccc3)C2)C1	-69%[inhibitor]
80	CC(C)(C)[C@@H]1CCC(=O)N(CC[C@H](Sc2ccc(Br)cc2)c2ccccc2)CC1	?
81	CCOC(=O)N1CCC(N2CCOc3ccc(CN4CCC(O)(c5cccnc5)CC4)cc3C2)CC1	-6%
82	COc1ccccc1CNc1cc(-c2cccc(NS(C)(=O)=O)c2)ncn1	-1%
83	COc1cc(=O)n2c(c1C(=O)NCc1ccc3c(c1)OCO3)CCN(C(=O)c1cccc(F)c1)CC2	-15%
84	Cc1nc2cncnc2n(C2CC2)c1=O	-42%[inhibitor]
85	CC(=O)N1CCC2(CC1)CN(Cc1ccccc1)C2	12%
86	COc1cccc(Nc2ncc3nc(C)c(=O)n(C[C@H]4CCCO4)c3n2)c1	6%
87	Nc1nc2n[nH]nc2c(=O)[nH]1	?
88	COC1=CC(=O)CC(C)C12Oc1c(Cl)c(OC)cc(OC)c1C2=O (stereo unspecified)	4%
89	CCCCCc1ccc(-c2cn(CCCOCc3ccccc3)nn2)cc1	-69%[inhibitor]
90	c1cncc(CNc2ncnc3ccc(-c4ccoc4)cc23)c1	-29%

# Rewritten with each value named: part of the list above.
[82] COc1ccccc1CNc1cc(-c2cccc(NS(C)(=O)=O)c2)ncn1
  EPAC1 ag val = -1%

[83] COc1cc(=O)n2c(c1C(=O)NCc1ccc3c(c1)OCO3)CCN(C(=O)c1cccc(F)c1)CC2
  EPAC1 ag val = -15%

# Additional compounds.
no.	SMILES	EPAC1 ag val
91	CCN(CC)C1CCN(C(=O)c2cnn(-c3nccc(-c4ccco4)n3)c2C(C)C)C1 (stereo unspecified)	5%
92	S=C=Nc1ccc(N=C=S)cc1	-26%
93	Fc1ccc([C@H]2CCNC[C@H]2COc2ccc3c(c2)OCO3)cc1	8%
94	COc1ccc(CN2CCOc3ccc(CN4CCC(O)(c5cccnc5)CC4)cc3C2)cc1OC	-5%
95	C#C[C@]1(O)CC[C@H]2[C@H]3CCC4=Cc5oncc5C[C@]4(C)[C@@H]3CC[C@]21C	-15%
96	CN(C)c1ccc(/C=C/N2C=CCc3c2ccc2ccccc32)cc1	-15%
97	CN(Cc1ccco1)c1ncncc1-c1ccccc1C(F)(F)F	-17%
98	CN(C)Cc1ccccc1-c1ccc2ncnc(N3CCOCC3)c2c1	-42%[inhibitor]
99	C[C@H](CCC(=O)NCC(=O)O)C1CC[C@H]2C3CC[C@@H]4C[C@H](O)CC[C@]4(C)C3C[C@H](O)[C@]12C (stereo partly specified)	-23%
100	O=C(Nc1ccccc1)N1CCCC2(CCN(C(=O)c3csnn3)CC2)C1	4%
101	O=C(c1cnccn1)N1CCC2(CCN(Cc3cc(C(F)(F)F)cc(C(F)(F)F)c3)CC2)CC1	-66%[inhibitor]
102	C=C1C[C@]23CC[C@H]4C(CO)(CO)C[C@@H](O)C[C@@]4(C)[C@@H]2CC[C@H]1C3	-4%
103	CCn1c(-c2cccc(OC)c2)nc2cc(NC(C)=O)cc(C(=O)N3CCCC(C(C)=O)C3)c21 (stereo unspecified)	-9%
104	O=C(CC1(c2cccc(F)c2)CC(=O)N(Cc2cccnc2)C1=O)N1CCCCCCC1 (stereo unspecified)	-11%
105	COCCn1c(=O)c(-c2ccc(Cl)cc2)nc2cnc(Oc3cccc(Cl)c3)nc21	-14%
106	Cc1nc2cnc(Nc3ccccc3)nc2n(C)c1=O	?
107	CCCCCCCCCCCCN1[C@@H](CC(=O)OC)c2cc(C(F)(F)F)ccc2S1(=O)=O	-71%[inhibitor]
108	O=c1[nH]c(=O)c2nc3ccccc3nc2[nH]1	4%&-2%
109	O=C1O/C(=C/Br)CCC1c1cccc2ccccc12 (stereo unspecified)	-1%
110	CN(C)c1cccc(C(=O)NCC2Cc3cccc(-c4cncnc4)c3O2)c1 (stereo unspecified)	4%
111	Oc1ccc(-c2cnccn2)cc1CN1CCN(C2CCCCC2)CC1	-3%
112	C=CC(C)=C[C@@]1(C)SC(=O)C(C)=C1O	4%
113	O=S(=O)(c1ccccc1)N1CCC2(CC1)CN(Cc1ccccc1)C2	-63%[inhibitor]
114	COc1ccc(CNc2cc(-c3ccoc3)ncn2)c(OC)c1	15%

# Screens as filed in PubChem.
